Screening results (PubChem)
GIRK2 act – activators of human GIRK2 potassium channels | G protein-activated inward rectifier potassium channel 2 (Homo sapiens), P48051 | HEK293-GIRK2 thallium flux, Thallos fluorescence | calls only for hits at 25 µM | 0.05% of 63,000 active;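 active = among the strongest 0.2% of first-round signals and kept after retests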;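 also: first round at about 10 µM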
Target sequence (P48051 whole entry, looked up): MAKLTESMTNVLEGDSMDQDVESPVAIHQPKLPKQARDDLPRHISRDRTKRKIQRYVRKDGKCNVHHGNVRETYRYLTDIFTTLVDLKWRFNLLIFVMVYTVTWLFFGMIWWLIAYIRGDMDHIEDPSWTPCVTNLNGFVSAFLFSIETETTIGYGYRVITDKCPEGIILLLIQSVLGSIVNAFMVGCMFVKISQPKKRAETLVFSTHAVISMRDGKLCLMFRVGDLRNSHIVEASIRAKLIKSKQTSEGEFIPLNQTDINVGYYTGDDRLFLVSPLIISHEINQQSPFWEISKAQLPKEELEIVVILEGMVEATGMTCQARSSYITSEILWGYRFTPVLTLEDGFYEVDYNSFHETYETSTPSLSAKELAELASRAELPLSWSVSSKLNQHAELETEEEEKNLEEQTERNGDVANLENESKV
Calls only; i = inactive. Some of the compounds tested; rates above refer to the full screens.

SMILES	GIRK2 act
O=C(Nc1nc2c(s1)CN(C(=O)c1cc(-c3ccccc3)on1)CC2)C1CCCO1 (centres undefined)	i
COc1cccc(-c2noc(C3CC(=O)N(c4ccc(Cl)cc4)C3)n2)c1OC (centres undefined)	i
CCc1cc(=O)n(CC(=O)NCCC2=CCCCC2)c(N)n1	i
COc1ccc(-c2oc3c(CC=C(C)C)c(O[C@@H]4O[C@H](CO)[C@@H](O)[C@H](O)[C@H]4O)cc(O)c3c(=O)c2O[C@@H]2O[C@@H](C)[C@H](O)[C@@H](O)[C@H]2O)cc1	i
C[C@H](N)C1CCC(C(=O)Nc2ccncc2)CC1 (some centres undefined)	i
O=C(NCc1cccnc1)C1CCN(c2ncnc3c2oc2ccccc23)CC1	i
CN[C@@H]1[C@H](O)[C@H](NC)[C@H]2O[C@@]3(O)C(=O)C[C@@H](C)O[C@H]3O[C@@H]2[C@H]1O	i
CCCOc1ccc(C(=O)OCCN(CC)CC)cc1N	i
COc1cc2ncn(-c3cc(OCc4ccccc4S(C)(=O)=O)c(C#N)s3)c2cc1OC	i
CN(C)CC/C=C1/c2ccccc2COc2ccc(CC(=O)O)cc21	i
O=c1ccc(-c2ccc3c(c2)OCO3)nn1CCc1nc(-c2cccc(Cl)c2)no1	i
O=C(CCS(=O)(=O)c1ccccc1)Nc1ccc(-c2ccn[nH]2)cc1	i
N=c1nc(N2CCCCC2)cc(N)n1O	i
CCN(CC)CC1CCCCN1CC(=O)N1c2ccccc2C(=O)Nc2cccnc21 (centres undefined)	i
CCn1c(-c2nonc2N)nc2cnc(Oc3cccc(NC(=O)c4ccc(OCCN5CCOCC5)cc4)c3)cc21	i

Filtered by structure, the compounds so far containing an aryl methoxy group
SMILES	GIRK2 act
COc1cccc(-c2noc(C3CC(=O)N(c4ccc(Cl)cc4)C3)n2)c1OC (centres undefined)	i
COc1ccc(-c2oc3c(CC=C(C)C)c(O[C@@H]4O[C@H](CO)[C@@H](O)[C@H](O)[C@H]4O)cc(O)c3c(=O)c2O[C@@H]2O[C@@H](C)[C@H](O)[C@@H](O)[C@H]2O)cc1	i
COc1cc2ncn(-c3cc(OCc4ccccc4S(C)(=O)=O)c(C#N)s3)c2cc1OC	i

Next part:
SMILES	GIRK2 act
COc1cccc(-n2cc(C(=O)OCC(=O)OC(C)(C)C)c3ccccc3c2=O)c1	i
CC(C)(C)NCC(O)COc1cccc2c1C[C@H](O)[C@H](O)C2 (some centres undefined)	i
O=C1c2c(O)ccc(O)c2C(=O)c2c(NCCNCCO)ccc(NCCNCCO)c21	i
CC1(C)O[C@@H]2C[C@H]3[C@@H]4C[C@H](F)C5=CC(=O)C=C[C@]5(C)[C@@]4(F)[C@@H](O)C[C@]3(C)[C@]2(C(=O)CO)O1	i
CCOC(=O)c1ccccc1NC(=O)Cn1cccc(-c2nc(-c3ccccc3)no2)c1=O	i
O=C(Nc1cccc(Cl)c1)Nc1ncc(CCNc2ncnc3ccsc23)s1	i
CN(C)CCCSc1ccccc1NC(=O)/C=C/c1ccccc1	i
COc1ccc(Cl)cc1-n1nnc(C(=O)NC2CC2)c1-c1ccncc1	i
COc1cc(N)c(Cl)cc1C(=O)N[C@@H]1CCN(CCCOc2ccc(F)cc2)C[C@@H]1OC	i

Four compounds already listed, arranged by SMILES length, high to low:
SMILES	GIRK2 act
COc1cc(N)c(Cl)cc1C(=O)N[C@@H]1CCN(CCCOc2ccc(F)cc2)C[C@@H]1OC	i
CCOC(=O)c1ccccc1NC(=O)Cn1cccc(-c2nc(-c3ccccc3)no2)c1=O	i
O=C1c2c(O)ccc(O)c2C(=O)c2c(NCCNCCO)ccc(NCCNCCO)c21	i
O=C(Nc1cccc(Cl)c1)Nc1ncc(CCNc2ncnc3ccsc23)s1	i

Some of the entries so far, field by field:
CC1(C)O[C@@H]2C[C@H]3[C@@H]4C[C@H](F)C5=CC(=O)C=C[C@]5(C)[C@@]4(F)[C@@H](O)C[C@]3(C)[C@]2(C(=O)CO)O1
- GIRK2 act: i
CCOC(=O)c1ccccc1NC(=O)Cn1cccc(-c2nc(-c3ccccc3)no2)c1=O
- GIRK2 act: i
O=C(Nc1cccc(Cl)c1)Nc1ncc(CCNc2ncnc3ccsc23)s1
- GIRK2 act: i
